BJeLR viability: MLPCN primary cell-based screen for lethality selective to Ras in HRASV12 cells; BJeLR (HRASV12) viability, CellTiter-Glo ATP luminescence, 48 h; reference of the scale not given here; AID 1554, 2009; 300,000 tested, 0.17% active; inhibition, % (test concentration not listed);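 active means replicate mean above 50%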;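 further: 50 nL library stock added to about 25 µL; numbers are from one replicate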
PrP 5UTR inh: inhibition of PrP 5' UTR reporter expression. 340,000 tested, 0.35% active. inhibition, % (test concentration not listed). cell-based PrP 5' UTR mRNA reporter, plate reader;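 active means every replicate at 50% or more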;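 further: 0 = median of the neutral control wells; tested in H4 reporter cells; numbers are from one replicate; inactives centre near -14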
Starred values were filed as active, the others as inactive; · = not tested or not shown. These rows are one share of the data (hit frequency here may not be typical).

Each structure is followed by: BJeLR viability, PrP 5UTR inh
1) O=S(=O)(O)c1nc2ccccc2n1Cc1cccc2ccccc12
  -1, ·
2) O=C1Nc2ccc(Br)cc2C1=Nc1ccc(-c2nnc3n2CCCCC3)cc1
  -2, ·
3) CCCN1CCC(NC23CC4CC(CC(C4)C2)C3)CC1
  5, ·
4) CCN(CC)CCNC(=O)C(=O)NCC1OCCN1C(=O)c1ccc2c(c1)OCO2 (centres undefined)
  -3, ·
5) CC1(C(=O)CSc2ncn[nH]2)CCC(=O)O1 (centres undefined)
  -3, ·
6) Cn1nc(OC(=O)Nc2ccc(Cl)cc2)cc1C(F)(F)F
  -8, ·
7) O=C(C[n+]1cccc(C(=O)N/N=C/c2cccc([N+](=O)[O-])c2)c1)c1ccccc1
  ·, -31
8) O=C(C[n+]1ccccc1)N/N=C/c1ccc(Cl)cc1
  ·, -11
9) CCCCCCNC(=O)N[C@H](C(=O)NCCC[C@H]1CN2C(=NC[C@H]2C)N1CCC(c1ccccc1)c1ccccc1)C(C)O (some centres undefined)
  ·, -11
10) COc1cccc(/C=N/NC(=O)CN(C)S(=O)(=O)c2ccccc2)c1OC
  ·, -14
11) COc1ccccc1-n1c(SCC(=O)N(C)C)nnc1-c1ccco1
  ·, -11
12) C=CC(=O)Nc1cccc(CN2C(=O)N(c3cc(OC)cc(OC)c3)Cc3cnc(NCCCCN(CC)CC)nc32)c1
  ·, -18
13) N/C(=N\OC(=O)c1ccccc1Cl)c1cccc([N+](=O)[O-])c1
  -4, -45
14) C/C(=N\Nc1ccc(C(=O)O)cc1)c1ccc(S(=O)(=O)NCc2ccco2)cc1
  -5, -2
15) COc1cc(OC)c(OC)cc1/C=C1\Oc2cc(OS(C)(=O)=O)ccc2C1=O
  6, -21
16) Cc1cc2oc(=O)cc(C)c2cc1NC(=O)CCl
  3, -22
17) CCOC(=O)c1cnc2c(F)ccc(F)c2c1Sc1ccccc1
  -1, -14
18) CCOC(=O)c1sc2ncn(/N=C/c3cccnc3)c(=O)c2c1C
  -4, -13
19) Cc1nc(Cl)cc(N/N=C/c2ccc(O)cc2O)n1
  -5, -4
20) N#C/C(=N\Nc1ccc(Cl)c(Cl)c1)C(=O)C1CC1
  25, -46
21) Cc1[nH]c2ccccc2c1/C=N/NC(=O)c1cc(C(C)C)[nH]n1
  -7, -20
22) COc1ccc(/C=N/N=C2/SCC(=O)N2Cc2ccccc2)cc1
  -9, -91
23) Cc1cc(C)n(CCC(=O)N/N=C/c2ccc(Cl)c([N+](=O)[O-])c2)n1
  4, -14
24) O=C(N/N=C/c1cccc([N+](=O)[O-])c1)c1c[nH]c2ccccc12
  6, -19
25) Cc1ccc2nc(-c3ccc4c(c3)OCCO4)cn2c1
  19, 89*
26) Cc1ccc2nc(/N=C(\N)NC(=O)NC3CCCCC3)nc(C)c2c1
  1, -12
27) CCNC(=S)N(CCN(CC)CC)Cc1cc2cc3c(cc2[nH]c1=O)OCCO3
  -3, -16
28) O=C(NCc1cccnc1)c1cc(-c2ccc(Cl)cc2)oc1C(F)(F)F
  0, -8
29) CCN(CCO)C(=O)c1ccc2nc(Cc3ccc(OC)cc3)oc2c1
  -8, -8
30) COc1ccc(/C(C)=N/Nc2ccccc2Cl)c(O)c1
  3, -48
31) O=S(=O)(c1ccccc1)N1CCCC1c1cccs1 (centres undefined)
  -3, 0
32) COc1cc(Br)cc2cc(C(=O)N3CCOCC3)c(=O)oc12
  0, -11
33) O=C(N/N=C/C=C/c1ccco1)c1ccncc1
  -1, -1
34) CCN(CC)c1ccc(/C=N/NC(=O)c2ccoc2C)cc1
  17, -61
35) O=C(N/N=C/c1cccnc1)c1cc(-c2ccccc2OCc2ccccc2)n[nH]1
  -12, -8
36) COc1cc2c(cc1OC)C(CCc1ccccc1)=NCC2
  3, -75
37) CCOC(=O)C1(CCOc2ccccc2)CCN(C(=O)CCSC)CC1
  -23, -16
38) CC12CC[C@H]3[C@@H](CCC4(O)C[C@H](O)CCC34/C=N/NC(=O)c3ccccc3O)C1(O)CCC2C1=CC(=O)OC1 (some centres undefined)
  7, -16
39) C/C(=N\NC(=O)CCn1nnc2ccccc21)c1ccco1
  11, -17
40) COC(=O)c1sc(-c2ccc(Cl)cc2)cc1NC(=O)/C=C/C(=O)O
  -10, -13
41) N#C/C(=N/Nc1ccccc1[N+](=O)[O-])C(N)=S
  19, -22
42) Cc1cc(C)c2c(CCl)cc(=O)oc2c1
  56*, -12
43) COc1cccc(/C=N/NC(=S)NC2CC3CC2C2C=CCC32)c1O (centres undefined)
  5, -12
44) Cc1ccsc1/C=N/n1cnnc1
  5, -12
45) COc1ccc(C(=O)Nc2ccc(N3CCCC3)cc2)cc1OC
  39, -42
46) CCN(CC)c1ccc(/C=N/NC(=O)c2ccco2)c(O)c1
  58*, -43
47) O=C(N/N=C/c1ccc([N+](=O)[O-])o1)c1cc2ccccc2o1
  68*, 2
48) O=[N+]([O-])c1ccc(N/N=C/c2ccccc2)cc1
  -5, -33
49) O=C(N/N=C\c1coc2ccccc2c1=O)c1ccco1
  0, -25
50) C/C(=N\N1CCN(Cc2ccccc2Cl)CC1)c1ccc(F)cc1
  -10, -16
51) Cc1ncc(CO)c(/C=N/NC(=O)c2cccc(S(=O)(=O)N3CCCC3)c2)c1O
  -2, -2
52) COc1ccc(CNCCC(c2ccc(F)cc2)c2ccc(OC(C)C)cc2)cc1OC (centres undefined)
  10, 1
53) COc1ccc(NC(=O)CCC(=O)N/N=C/c2cn(C)nc2C)cc1
  -2, -1
54) COCCNC(=S)N/N=C(\C)c1ccc(Cl)s1
  0, 5
55) Cc1ccccc1OCC(=O)N/N=C/c1sc(=O)n(Cc2cccc(C(=O)O)c2)c1Cl
  14, -10
56) COc1ccc(C(=O)[C@H]2[C@H]3C(=O)N(c4ccccc4)C(=O)[C@H]3C3C=CC=NN32)cc1 (some centres undefined)
  -4, -14
57) C#CCN1C(=O)C(O)(c2c(C)[nH]c3ccccc23)c2ccccc21 (centres undefined)
  -6, -1
58) Cc1ccc(/C=N/NC(=O)Cn2nnc(N)n2)o1
  -11, -4
59) OC1(c2ccccc2)CCNC2CCCCC21 (centres undefined)
  -6, 8
60) O=C1NC(=O)N(Cc2ccc(F)cc2)C(=O)/C1=C\c1ccc([N+](=O)[O-])s1
  25, -20

The list continues:
Each structure is followed by: BJeLR viability, PrP 5UTR inh
61) CC(C)(/C=N/O)/[N+]([O-])=C/c1ccccc1C(F)(F)F
  -7, 3
62) O=C(Nc1ncccn1)c1ccc([N+](=O)[O-])cc1Cl
  -16, -15
63) C/C(CC(C)C)=N/Nc1ccc([N+](=O)[O-])cc1[N+](=O)[O-]
  -3, -15
64) COc1ccc(C(=O)/C=C/Sc2nc3ccccc3o2)cc1
  27, -18
65) CC(C)NC(=O)c1ccc2c(c1)N(Cc1ccccc1)C(=O)C(C)(C)O2
  6, -8
66) Cc1cc(C(=O)NNc2ccc(Cl)cc2)no1
  -1, -63
67) Nc1nonc1C(=O)N/N=C/c1cc(Br)ccc1O
  -5, 4
68) S=c1[nH]nc(-c2cc(-c3ccccc3)n[nH]2)n1/N=C/C=C/c1ccccc1
  -1, 0
69) CCc1ccc(S(=O)(=O)N/N=C\c2ccc([N+](=O)[O-])o2)cc1
  4, -13
70) Cc1ccc(NC(=O)CN2C(=O)c3ccccc3C2=O)c(C)c1
  0, 0
71) Cc1ccccc1Cn1cc(/C=N/n2cnnc2)c2ccccc21
  10, -3
72) COc1cccc(-c2c(C(=O)N/N=C/c3ccncc3)nnn2-c2nonc2N)c1
  -2, -19
73) COc1ccc(Cl)cc1C(=O)NCCN1CCOCC1
  6, -16
74) COC(=O)c1c(NC(=O)c2ccc(C)cc2)csc1C
  11, -42
75) CCOC(=O)Cn1cc(/C=N/NC(=O)CC#N)c2ccccc21
  -1, -10
76) Cc1nn(-c2ccccc2)c(C)c1-c1cc(C(=O)N/N=C/c2ccc(O)cc2)[nH]n1
  7, -30
77) Nc1ccc2nc(-c3ccccc3)c(-c3ccccc3)nc2c1
  -4, -36
78) CCCOc1ccc(/C=N/NC(=O)CSc2ccccn2)cc1OC
  -1, -28
79) ONC(=Nc1ccccc1Cl)c1ccccc1Cl
  3, -26
80) O=C(COc1ccccc1)N/N=C/c1sc(=O)n(Cc2cccc(C(=O)O)c2)c1Cl
  3, -15
81) C=C(C)C(=O)Nc1cccc(C2=NOC3(C2)C[C@@H](C(N)=O)N(C(=O)CCCCC)C3)c1 (some centres undefined)
  -2, -6
82) C=CCOC(=O)C1=C(C)NC(=O)NC1/C=C/c1ccccc1 (centres undefined)
  4, -40
83) Cc1cc(C(=O)N/N=C/c2c(C)nn(-c3ccccc3)c2C)n[nH]1
  -13, -19
84) Cc1nn(C)cc1N1C(=O)c2cccc3c(N)ccc(c23)C1=O
  6, -25
85) C/C(=N\NC(=S)NCC(C)(C)C)c1cc(F)cc(F)c1O
  7, -10
86) COc1cc(/C=C2\SC(=O)N(CC(=O)Nc3ccccc3F)C2=O)cc(Cl)c1O
  6, -8
87) Cc1ccc(-c2ccc(/C=N/NC(N)=S)o2)cc1
  3, -44
88) O=C(CNC(=O)C1COc2ccccc2O1)N/N=C\c1ccc(Cl)cc1 (centres undefined)
  -12, -6
89) O=[N+]([O-])c1ccc(S(=O)(=O)NCCS(=O)(=O)N2CCN(c3ccccc3)CC2)cc1
  6, -7
90) COc1ccc(/C=N/NC(=O)c2cccnc2)cc1COc1ccc(NC(C)=O)cc1
  29, -15
91) CC(/C=C/C=C/c1ccccc1)=N/NC(=O)c1ccc2c(c1)OCCO2
  -7, -67
92) COc1cccc(/C=C2\SC(=O)N(CCC(=O)N3CCC(C(=O)O)CC3)C2=O)c1
  14, -25
93) CC(=C/c1ccccc1)/C=N/NC(=O)c1ccccn1
  -2, -40
94) CCOC(=O)C1(Cc2cccc(OC)c2)CCCN(C(=O)CSC)C1 (centres undefined)
  -3, -52
95) COc1ccc(/C=N/c2c(-c3ccco3)nc3ccccn23)cc1OC
  9, -5
96) COc1cc(C(F)(F)F)c(C(=O)N(C)Cc2ccc(Cl)c(Cl)c2)cn1
  0, -10
97) Cc1nn(-c2ccccc2)c2c1/C(=N/O)CC(C)(C)C2
  3, -24
98) COc1cc(NC(=O)NNC(=O)c2cc3occc3n2C)cc(OC)c1OC
  1, -10
99) O=C(N/N=C/c1ccccc1[N+](=O)[O-])c1cccs1
  0, -55
100) CC1CN(c2nc3ccccn3c(=O)c2/C=C(\C#N)C(=O)N2CCOCC2)CC(C)O1 (centres undefined)
  5, -6
101) CCN(CC)c1ccc(/C=N/NC(=O)c2cc3ccccc3[nH]2)cc1
  -9, -12
102) CCOc1ccc(CC(=O)N/N=C/c2cccnc2)cc1
  -8, -1
103) COc1ccccc1/C=C/C=N/NC(=O)c1cc(-c2ccco2)[nH]n1
  -2, -23
104) COC(=O)c1ccccc1-c1ccc(/C=N/NC(N)=O)o1
  -8, -15
105) CSc1ccc(-c2sc(Nc3ccccc3)n[n+]2-c2ccc(F)cc2)cc1
  7, -27
106) COc1cc(/C=N/NC(=O)c2cccc3ccccc23)cc(OC)c1O
  -4, -17
107) CCCCCOc1ccc(C)cc1CN(CCCl)CCCl
  5, -1
108) CC(C)OC(=O)/C(=C/c1ccco1)c1ccccc1
  -8, -1
109) Oc1ccccc1Nc1nc(NCc2ccco2)c2ccccc2n1
  9, -17
110) Nc1ccccc1SC(C[N+](=O)[O-])c1ccccc1 (centres undefined)
  33, -33
111) Nc1nonc1-n1nnc(C(=O)N/N=C/c2cccnc2)c1-c1ccccc1
  -5, -19
112) COc1ccc(NC(=O)N[C@@H](CCSC)C(=O)O)cc1Cl
  -2, -5
113) O=C(N/N=C/c1ccc(O)cc1)c1cc(C23CC4CC(CC(C4)C2)C3)[nH]n1
  1, 3
114) Nc1nc(-c2ccccc2)c(-c2ccccc2)o1
  -15, 1
115) CC(=O)Nc1ccc(/C=N/Nc2ccc(C(=O)c3c(C)cc4ccccn34)cc2[N+](=O)[O-])cc1
  14, -12
116) Nc1c(C(=O)N/N=C/c2ccc(F)cc2)oc2nc(-c3ccccc3)cc(-c3ccco3)c12
  0, -2
117) Cc1ccc(S(=O)(=O)/N=C2/C=C(C3C(=O)CC(C)(C)CC3=O)C(=O)c3ccccc32)cc1
  -1, -57
118) Nc1sc(-c2ccccc2)cc1C(=O)N/N=C/c1ccc(Cl)cc1
  0, -52
119) Cc1cc(C)c2nc(/N=C(\N)NC(=O)c3ccccc3)nc(C)c2c1
  4, -22
120) CN=C1SC(CC(=O)Nc2ccccc2F)C(=O)N1/N=C/c1ccc(O)c(OC)c1 (centres undefined)
  1, -8

Whole records from above.
Nc1nonc1-n1nnc(C(=O)N/N=C/c2cccnc2)c1-c1ccccc1 reads BJeLR viability = -5; PrP 5UTR inh = -19
COc1cccc(/C=C2\SC(=O)N(CCC(=O)N3CCC(C(=O)O)CC3)C2=O)c1 reads BJeLR viability = 14; PrP 5UTR inh = -25
Cc1ccc(S(=O)(=O)/N=C2/C=C(C3C(=O)CC(C)(C)CC3=O)C(=O)c3ccccc32)cc1 reads BJeLR viability = -1; PrP 5UTR inh = -57

Additional entries.
Each structure is followed by: BJeLR viability, PrP 5UTR inh
121) O=C1/C(=C/c2ccccc2)SC(=S)N1CC(=O)N1CCCCC1c1cccnc1 (centres undefined)
  -4, -6
122) COc1ccc(/C=N/NC(=O)c2csc(-n3nc(C)cc3C(F)(F)F)n2)cc1
  -8, -22
123) CC(C)c1ccc(/C=N/N2CCN(c3ccccn3)CC2)cc1
  -9, -28
124) COC(=O)/C=c1/s/c(=C(/C#N)C(=O)N2CCOCC2)n(-c2ccccc2)c1=O
  7, -20

Assay outcomes from PubChem.
